Source: PubChem
MgrA-DNA mod: S. aureus MgrA-DNA binding modulation. 84,000 tested, 0.13% active. fluorescence polarization. inhibition, %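 (about 10 µg/mL by stock and volumes)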;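 active means above 50% in either of two replicates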;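 further: 0% = protein plus DNA without compound and 100% = DNA alone without protein; higher means less MgrA bound to DNA so lower polarization; one replicate is shown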
S aureus helic: blocks Staphylococcus aureus DNA helicase | purified S. aureus helicase, fluorescence unwinding assay; about half of the hits fall short of the stated cut | inhibition, %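 (tested at about 80 µM)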 | 120,000 tested, 0.05% active;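 active means both duplicates at 50% or more, or one of them with a favoured structure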;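 further: 0% = mean of negative control wells and 100% = mean of positive control wells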
Starred values were filed as active, the others as inactive; . = no result given.

SMILES | MgrA-DNA mod | S aureus helic
O=C(c1cn(CC(=O)N2CCOCC2)c2ccccc12)C1CC1 | -0.6 | -2.0
CNc1nc(SC)nc(N(C)C#N)n1 | 1.5 | -12.0
CCO/C=C(\C#N)S(=O)(=O)c1ccc2ccccc2c1 | -2.0 | .
Cc1ccc(CCNC(=O)CSCc2ccc(F)cc2)cc1 | . | 3.0
Cc1ccc(C(=O)c2ccccc2C(=O)O)cc1C | -0.4 | .
S=c1nc2c(n[nH]1)c1ccccc1n2Cc1ccccc1 | 2.4 | 15.0
Cc1ccc(NC(=O)CNc2ccccc2)cc1Cl | -2.1 | 3.0
CCCN(CC1CC1)C(=O)CSc1nc2ccccc2n1C | . | 9.0
N#CCCn1cc(C(CC(=O)c2ccc3c(c2)CCCC3)C(=O)O)c2ccccc21 (stereo not drawn) | 2.3 | 18.0
Cc1csc(N)c1-c1nc2ccccc2s1 | -0.4 | .
O=C1CSCC(=O)N1c1ccc(Cl)cc1C(F)(F)F | 2.6 | .
COCCNC(=O)Cn1nnc(-c2ccc(OC)cc2)n1 | 1.4 | 4.0
CCOC(=O)C1=CS/C(=C2/C(=S)C(C)(C)N(C(=O)CC(C)C)c3ccc(OCC)cc32)S1 | 2.1 | 5.0
C(=Nc1ccc(-c2cnco2)cc1)c1cccnc1 | -0.8 | .
COc1ccc(N2C(=O)C=C(c3ccc(F)cc3)C2/C=N/O)cc1 (stereo not drawn) | -0.6 | .
CCn1ccc2c(OCC(=O)NC3CCCC3)cccc2c1=O | . | -14.0
O=C1Nc2ccccc2C1(O)C/C(=N/O)c1ccco1 (stereo not drawn) | 1.8 | 13.0
CSc1ncc(C(=O)O)c(C(F)(F)F)n1 | -3.8 | 4.0
O/N=C/C=C/c1cn(Cc2ccccc2)nn1 | . | -2.0
CC(CN1CCCC1)OC(=O)c1ccc(Br)cc1 (stereo not drawn) | . | 4.0
COc1ccc(-c2ccc(OC)cc2C(=O)NN)cc1 | 1.5 | 8.0
CCN(CC)C(=O)c1sc(NC(=O)C(C)C)c(C#N)c1C | -0.8 | 9.0
COCSc1nnc(-c2ccncc2)n1-c1ccc(C)c(C)c1 | . | -10.0
Oc1c(Cl)cc(Cl)c(Cl)c1Cc1c(O)c(Cl)cc(Cl)c1Cl | 9.9 | .
COc1ccc(CCN(C)C(=O)COc2ccc(NC(C)=O)cc2)cc1OC | . | 31.0

Remaining list, next part.
SMILES | MgrA-DNA mod | S aureus helic
COc1ccc2cc(CCNC(=O)C3CCCC3)c(=O)[nH]c2c1 | . | -17.0
Cc1ccc(-c2ccc(CCC(=O)O)[nH]2)cc1 | -2.8 | 7.0
O=C(CCC(=O)Nc1ccc(F)cc1)Nc1ccc(F)cc1 | 0.9 | 16.0
CCN(CC)C(=O)c1sc(NC(=O)c2c(-c3ccccc3)noc2C)c(C(=O)OC(C)C)c1C | 0.0 | .
O=C1CC2C(=O)NCCN2C(=NC(=O)c2ccc(Cl)cc2)N1 (stereo not drawn) | 1.6 | -6.0
CCS(=O)(=O)C(=C(Nc1ccc(OC)cc1)Nc1ccc(OC)cc1)S(=O)(=O)CC | . | -8.0
COC(=O)c1cn(CCOc2ccccc2)c2ccccc12 | 0.8 | 12.0
CCCN1CCN(C(=O)c2ccc(S(=O)(=O)N3CCCc4ccccc43)cc2)CC1 | . | -3.0
Cc1cc(C)c(C(=O)COC(=O)c2c(C)noc2C)cc1C | . | 5.0
O=C1CCn2cccc21 | . | -7.0
CCc1ccc(NC(=O)CCCN2C(=S)NC(C)(C)CC2C)cc1 (stereo not drawn) | -0.7 | 12.0
CCc1cc(=O)oc2cc(C)c3c(C(C)(C)C)coc3c12 | -2.0 | 4.0
Cc1ccc(C)c2c1NC(c1ccc(Br)cc1)C1CC=CC21 (stereo not drawn) | -0.2 | .
CCOC(=O)c1c(N)sc(N)c1C(=O)OCC | 15.0 | 6.0
NC(=O)CSc1nc(SCC(N)=O)c2c3c([nH]c2n1)CCCC3 | . | 13.0
O=C(NCC(c1cccs1)N1CCOCC1)c1cc(F)cc(F)c1 (stereo not drawn) | . | 9.0
COc1cccc2c1c(NC(=O)CSCC(=O)O)nn2C | -7.9 | .
CN(C)C(=O)C(Sc1ccc(S(=O)(=O)N2CCCC2)cn1)c1ccccc1 (stereo not drawn) | . | -2.0
CCOC(=O)C1=C(C)NC(C)=C(C(=O)OCC)C1C(=O)OC | . | 1.0
O=C(NCc1ccccc1)c1ccc(NC2=NC3CS(=O)(=O)CC3S2)cc1 (stereo not drawn) | . | -12.0
O=C(CSc1nnc(C2COc3ccccc3O2)n1-c1ccccc1)Nc1ccc2c(c1)OCCO2 (stereo not drawn) | . | -5.0
CC(CN1CCN(Cc2ccccc2)CC1)N(C(=O)C1CCC1)c1ccccn1 (stereo not drawn) | -3.1 | .
CCOC(=O)C1=C(C)N=c2s/c(=C\c3ccc(Br)cc3)c(=O)n2C1c1ccc2c(c1)OCO2 (stereo not drawn) | -1.2 | .
O=C(CN(Cc1ccc(Br)cc1)S(=O)(=O)c1ccccc1)Nc1ccccc1 | 1.9 | 10.0
CCCCCSc1nnc2c(n1)OC=Nc1ccccc1-2 | . | 39.0

Given with two lines to a compound: 5 of the compounds above
Each structure is followed by: MgrA-DNA mod	S aureus helic
> CCS(=O)(=O)C(=C(Nc1ccc(OC)cc1)Nc1ccc(OC)cc1)S(=O)(=O)CC
→ .	-8.0
> O=C(CSc1nnc(C2COc3ccccc3O2)n1-c1ccccc1)Nc1ccc2c(c1)OCCO2 (stereo not drawn)
→ .	-5.0
> O=C(NCc1ccccc1)c1ccc(NC2=NC3CS(=O)(=O)CC3S2)cc1 (stereo not drawn)
→ .	-12.0
> Cc1ccc(C)c2c1NC(c1ccc(Br)cc1)C1CC=CC21 (stereo not drawn)
→ -0.2	.
> CCc1ccc(NC(=O)CCCN2C(=S)NC(C)(C)CC2C)cc1 (stereo not drawn)
→ -0.7	12.0

Continued.
SMILES | MgrA-DNA mod | S aureus helic
CCOc1ccc(NC(=O)c2cccc3c2C(=O)N(CC2CCCO2)C3)cc1 (stereo not drawn) | . | 28.0
CC(=O)Nc1ccc(OCCCNC(=O)C2=NNC(=O)CC2)cc1 | . | 7.0
CC1=C(C(=O)Nc2ccccc2)C(c2ccc(C)o2)NC(=S)N1 (stereo not drawn) | 2.4 | 6.0
CCOC(=O)C(Cc1ccccc1)C(=O)Nc1cc(N(C)C)ccc1C (stereo not drawn) | 1.3 | .
CCC(C)NC(=O)C(C)Sc1ccccc1 (stereo not drawn) | 2.5 | 6.0
CC1(C)C=Cc2cc(C#N)ccc2O1 | 1.1 | .
O=C1CCC(=O)N1CCC(c1ccccc1)c1ccco1 (stereo not drawn) | 5.2 | -7.0
CC(C)c1ccc(N=Cc2cc(Br)ccc2O)c(Br)c1 | 0.8 | .
Cc1ccc(NCC(=O)n2c3c(c4ccccc42)CCCC3)cc1Cl | 0.7 | 14.0
Cc1ccc(Sc2ncccc2NC(=O)c2ccc(C)cc2)cc1 | -4.3 | .
CC(=O)Nc1ccc(SCC(=O)c2cc(C)n(-c3nccs3)c2C)cc1 | . | 7.0
COc1ccc(/C=N/NC(=O)OC(C)(C)C)cc1OC | . | -20.0
CCOC(=O)C1=C(C)NC(=O)NC1c1cc(Br)c(OCc2ccccc2)c(OC)c1 (stereo not drawn) | 1.0 | .
CCc1n[n+](CC(=O)c2ccccc2)c(N)s1 | -1.6 | 1.0
Cc1nn(C(C)(C)C)c2c1C(c1ccsc1)C1=C(CCCC1=O)N2 (stereo not drawn) | 0.8 | -19.0
N#CCCN(Cc1cccnc1)S(=O)(=O)c1cccc(Cl)c1Cl | . | -5.0
N#Cc1ccc(C(=O)N2CCCC2)cc1 | -0.6 | -27.0
CCC(=O)N1CCc2cc(Br)cc(S(=O)(=O)C3(C(=O)OC)CC3)c21 | -0.2 | 3.0
Cc1ccc(N2CCN(c3cnn(C45CC6CC(CC(CC(=O)O)(C6)C4)C5)c(=O)c3Cl)CC2)c(C)c1 | . | -20.0
COc1cc(OC)c(NC(=O)c2cc3c(CO)cnc(C)c3oc2=O)cc1Cl | . | -5.0
COc1ccc(CCN(C)CN2C(=O)C3CC=CCC3C2=O)cc1OC (stereo not drawn) | . | 6.0
Cc1nn(-c2ccc(F)cc2)c(Cl)c1/C=C/C(=O)N1CCN(CC2CCCO2)CC1 (stereo not drawn) | . | 4.0
COC(=O)c1c(NC(=O)COc2ccc(OC)cc2)sc2c1CCCC2 | . | 4.0
Cc1ccc(C(=O)/C=C2/NCCNC2=O)cc1 | -0.2 | .
Cc1nnc(Nc2ccc3c(c2)OCO3)[nH]c1=O | . | -1.0

4 entries from above, reformatted:
> O=C(c1cn(CC(=O)N2CCOCC2)c2ccccc12)C1CC1
- MgrA-DNA mod = -0.6
- S aureus helic = -2.0
> Cc1cc(C)c(C(=O)COC(=O)c2c(C)noc2C)cc1C
- MgrA-DNA mod = .
- S aureus helic = 5.0
> CCCCCSc1nnc2c(n1)OC=Nc1ccccc1-2
- MgrA-DNA mod = .
- S aureus helic = 39.0
> Cc1ccc(-c2ccc(CCC(=O)O)[nH]2)cc1
- MgrA-DNA mod = -2.8
- S aureus helic = 7.0

(more compounds)
SMILES | MgrA-DNA mod | S aureus helic
Cc1ccc(-n2nc(C)c3c(C)c(CCC(=O)NN4CCOCC4)c(C)nc32)cc1C | . | -13.0
CSc1nc(-c2ccccc2)[nH]c1S(=O)(=O)c1ccccc1 | . | -16.0
CN1CCN(CCCNS(=O)(=O)c2ccc(-c3cc(C(F)(F)F)no3)s2)CC1 | . | 11.0
Fc1ccc(C2CC(c3ccco3)=Nc3ccccc3S2)cc1 (stereo not drawn) | . | 16.0
Cn1c(=O)c(-c2ccccc2)c(O)c2ccccc21 | -1.3 | .
O=c1[nH]c(=S)[nH]nc1Cc1ccc(Cl)c(Cl)c1 | . | -3.0
NNc1nc2c3c(ccc2s1)CCCC3 | . | 18.0
COC(=O)Cc1c(C)n[nH]c1C | . | -4.0
Cc1c(C)c(O)c(Cc2ccc3ccccc3n2)c(C)c1O | . | 8.0
CCCCN(Cc1ccco1)C(=O)Cn1ncc2c1-c1cc(C)ccc1OC2 | -1.1 | 9.0
CC(=O)Nc1ccc(-n2c(C)ccc2-c2ccccc2)cc1 | . | -25.0
CC1CN(CC(O)COc2ccc(C(C)C)cc2)CC(C)O1 (stereo not drawn) | -2.8 | 6.0
Cc1nc2ncnn2c(C)c1CCC(=O)OCc1ccc(C#N)cc1 | . | 23.0
CNC(=O)N1CCCC(Cn2cccc2)C1 (stereo not drawn) | 0.5 | .
O=C(Nc1ccc(Cl)cc1Cl)c1cccnc1Sc1cccc(C(F)(F)F)c1 | -0.9 | .
N#Cc1ccc2c(c1)nc1c3ccc4c5c(ccc(c(=O)n21)c53)C(=O)NC4=O | 6.3 | 5.0
CN(C)c1nc(N)c2c(N)nc3c(c2c1C#N)CC(=O)N3C(=O)NC12CC3CC(CC(C3)C1)C2 | . | 11.0
CCOc1ccc(Nc2nc3cc(C)ccc3cc2C)cc1 | 4.8 | 4.0
CCC(=O)NCc1ccc2[nH]c3c(c2c1)CCCC3 | . | 11.0
CCC(Sc1nc2cc(OC)c(OC)cc2c(=O)n1Cc1ccco1)C(=O)Nc1ccc(C)cc1 (stereo not drawn) | 1.9 | -3.0
O=C(CC(=O)c1ccccc1)Nc1cccc(C(=O)O)c1 | -3.2 | 14.0
O=C(NCc1nc(-c2ccccc2)no1)C(c1ccccc1)c1ccccc1 | . | 10.0
N#CC(C(=O)NCc1ccc2c(c1)OCO2)c1ccccc1 (stereo not drawn) | -1.1 | 7.0
O=C(NN1C(=O)c2ccccc2NC1c1ccco1)c1ccc(Br)cc1 (stereo not drawn) | . | 29.0
COC(=O)c1sc(SC)c(-c2ccn(C(=O)c3ccc(Cl)cc3)n2)c1C | . | 0.0

Two neighbouring compounds out of the list so far, for reference:
SMILES | MgrA-DNA mod | S aureus helic
O=C(NN1C(=O)c2ccccc2NC1c1ccco1)c1ccc(Br)cc1 (stereo not drawn) | . | 29.0
COC(=O)c1sc(SC)c(-c2ccn(C(=O)c3ccc(Cl)cc3)n2)c1C | . | 0.0

Following part
SMILES | MgrA-DNA mod | S aureus helic
CC(NC(=O)c1ccccc1)C(=O)NC1=NCCS1 (stereo not drawn) | . | -8.0
Cc1cc(C)c2c(CC(=O)N(CCC#N)Cc3cccnc3)coc2c1 | 0.3 | 5.0
CCOC(=O)c1nc[nH]c1C(=O)OCC | . | 10.0
COc1ccc(CCNC(=O)CSc2nc3ccc(C)cc3[nH]2)cc1 | -2.2 | -10.0
CCc1ccc2nc3nc(C)cc(C)c3c(N)c2c1 | . | 1.0
CCOc1ccc2nc(NCCO)[nH]c2c1 | -0.1 | 8.0
NC(N)=NC(N)=Nc1ccc(Br)cc1 | . | 6.0
FC(F)(F)c1cccc(C(c2nnnn2Cc2ccccc2)N(Cc2ccco2)CC2CCCO2)c1 (stereo not drawn) | 2.4 | 3.0
Nc1nc(-c2cc3ccccc3oc2=O)nc2c1c(=O)oc1ccccc12 | . | -4.0
N#CCN(CC#N)C(=O)c1cccc(Cl)c1 | 3.5 | 11.0
N#Cc1ccc(COc2cnc3ccccc3n2)cc1 | -0.8 | -5.0
CN=C(C)c1c(O)c2ccccc2oc1=O | -0.2 | -3.0
COCCN(Cc1ccccc1)C(=O)c1cnn(-c2ccccc2)n1 | . | -7.0
COc1ccc(CC(=O)Nc2c[nH]c(=O)[nH]c2=O)cc1OC | 3.6 | -7.0
CC1(C)CC(Nc2ncnc3sccc23)CC(C)(C)N1 | . | 12.0
O=C(Nc1cc(Cl)ccc1Cl)C1COc2ccccc2O1 (stereo not drawn) | 0.3 | 12.0
FC(F)(F)c1cccc(NC(=S)Nc2ccccn2)c1 | 4.5 | .
CC[n+]1c(C)ccc2ccccc21 | -1.2 | .
O=C(OCc1csc(-c2ccccc2)n1)c1cccs1 | . | 8.0
CCC(C)NC(=O)c1ccc2c(Cl)c3c(nc2c1)CCC3 (stereo not drawn) | -1.8 | 16.0
Cc1nnc(-n2cnc3ccccc32)c2ccccc12 | 1.4 | 10.0

Sorted by value in S aureus helic (highest first): three of the compounds above.
SMILES | MgrA-DNA mod | S aureus helic
CC(=O)Nc1ccc(OCCCNC(=O)C2=NNC(=O)CC2)cc1 | . | 7.0
CCc1n[n+](CC(=O)c2ccccc2)c(N)s1 | -1.6 | 1.0
O=C1CCn2cccc21 | . | -7.0

These rows are one share of the data; the hit share may differ from the screen's.
